Compound activity as filed in PubChem.
NPR1 antag – Natriuretic polypeptide receptor (hNpr1) antagonism - Primary qHTS | 76,000 tested, 1.6% active | Atrial natriuretic peptide receptor 1 (Homo sapiens), P16066 | HEK293 hNpr1 GloSensor cGMP, ANP-stimulated luminescence | Potency, µM (highest dose often 46.3 µM), without a hit: at the highest dose activity change, negative = inhibition, most hits filed as inhibitors; active = well fitted inhibition curve with a large enough effect; inconclusive = small, poorly fitted or top-dose-only effect; inactive = no such curve, though single readings can be large or run the other way;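 note: nearly all actives have a fitted effect of over 60% in size; nearly all hits also lower the signal before the agonist is added; a reference antagonist and vehicle were the controls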
Target sequence (P16066 whole entry, looked up): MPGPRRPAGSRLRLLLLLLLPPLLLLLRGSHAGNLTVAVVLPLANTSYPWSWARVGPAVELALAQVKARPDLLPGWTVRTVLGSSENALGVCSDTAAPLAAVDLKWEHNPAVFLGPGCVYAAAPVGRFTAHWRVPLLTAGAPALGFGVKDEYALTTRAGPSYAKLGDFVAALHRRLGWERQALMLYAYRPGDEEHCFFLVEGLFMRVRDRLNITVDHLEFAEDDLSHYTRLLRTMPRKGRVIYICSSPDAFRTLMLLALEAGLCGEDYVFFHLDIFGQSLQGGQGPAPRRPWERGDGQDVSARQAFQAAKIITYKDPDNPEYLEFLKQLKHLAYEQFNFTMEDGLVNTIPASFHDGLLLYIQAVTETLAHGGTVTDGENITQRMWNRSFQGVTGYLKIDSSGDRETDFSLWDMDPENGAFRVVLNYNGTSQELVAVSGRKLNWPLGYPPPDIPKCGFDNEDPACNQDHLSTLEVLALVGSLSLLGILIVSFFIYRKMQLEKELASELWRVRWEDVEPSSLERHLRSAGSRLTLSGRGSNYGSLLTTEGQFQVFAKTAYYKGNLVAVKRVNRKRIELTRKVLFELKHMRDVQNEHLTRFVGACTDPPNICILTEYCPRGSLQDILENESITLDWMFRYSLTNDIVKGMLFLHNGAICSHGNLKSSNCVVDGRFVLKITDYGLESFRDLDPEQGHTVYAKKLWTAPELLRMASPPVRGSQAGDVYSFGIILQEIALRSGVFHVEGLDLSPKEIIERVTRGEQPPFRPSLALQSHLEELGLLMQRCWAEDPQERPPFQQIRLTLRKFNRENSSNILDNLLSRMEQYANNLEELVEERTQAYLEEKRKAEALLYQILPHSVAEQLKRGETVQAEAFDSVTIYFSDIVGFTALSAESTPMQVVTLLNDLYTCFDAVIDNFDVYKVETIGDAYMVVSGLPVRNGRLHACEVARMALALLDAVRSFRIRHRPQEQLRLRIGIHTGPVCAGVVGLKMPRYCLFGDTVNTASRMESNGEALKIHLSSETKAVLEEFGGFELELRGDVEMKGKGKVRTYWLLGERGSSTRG
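HEK293 cells stably expressing human Npr1 and cGMP GloSensor pGS-40F, loaded 2 h with 2% GloSensor reagent, given compound 30 min at room temperature. Luminescence read before and 20 min after 0.1 nM hNppA.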
Starred values were filed as active, the others as inactive; u = inconclusive; [ ] = remark or other dose. % is set by controls: 0 for no effect and ±100 for the full control effect; potency is the fitted concentration of half-maximal effect. This is a subset; the hit share may differ from the screen's.

SMILES | NPR1 antag
O=C(c1ccc2[nH]ccc2c1)N1CCC(N2CC(OCC3CC3)C23CCOCC3)CC1 (stereo not drawn) | -4.1%
CC(C)NC(=O)c1ccccc1OCC1CCCN(CC2=Cc3ccccc3OC2)C1 (stereo not drawn) | -19.5%
O=C(CCC1CCCC1)NCc1nnc2c(-c3nc(C4CC4)no3)cccn12 | 5.5%
Cc1cnc(-c2cccnc2)n1CC1CCN(C(=O)C2CCC2)CC1 | 5.5%
COc1cccc(CNC2(Cc3cc(-c4ccc(F)cc4)on3)COC2)c1 | -0.7%[70.6 µM]
COc1ccc(/C=C/c2ccc3c(c2)C(=O)N2CC[C@H](NC(=O)COCC(=O)O)[C@H]2C(=O)N3)cc1 | -2.3%
CCCS(=O)(=O)N1C[C@@H](Oc2cccnc2)C[C@H]1C(N)=O | -0.7%
Cc1ccc(-c2ccc3nnc(CNC(=O)c4ccc(C#N)cc4)n3n2)cc1C | -9.4%
COCCN1CCCN(C(=O)C2CC2)c2ccccc21 | -6.3%
CC(C)(Oc1nn(Cc2cccc(Cl)c2)c2ccccc12)C(=O)NCCCn1ccnc1 | u
COc1ccc(CN2CCC3(Cc4ccccc4NC3=O)C2)cc1 (stereo not drawn) | -27.5%[70.6 µM]
COc1ccc(C(=O)N2CCN(C(C(=O)O)c3ccc(F)cc3)CC2)cc1 (stereo not drawn) | -4.1%
COCCN1CCC(N2CCN(S(=O)(=O)Cc3cccc(Cl)c3)CC2)C1=O (stereo not drawn) | 2.6%
O=C1CCCCC(C(=O)NCc2cccc(F)c2)N1 (stereo not drawn) | -1.7%
CC(C)(C)c1cc(CC2(NCc3ccc(C#N)cc3)COC2)no1 | -7.9%[70.6 µM]
O=C1CCC2(CCCO2)CCN1Cc1ccc(F)c(F)c1 (stereo not drawn) | 1.4%
CN(Cc1cccc(C(F)(F)F)c1)C(=O)Cc1cccc(Cl)c1 | 7.3%
O=C(NC[C@H]1O[C@@H](CC(=O)N2CCN(c3ccccn3)CC2)[C@H](O)[C@@H]1O)c1ccco1 | -0.3%[70.6 µM]
Cc1ccc(Cl)cc1NC(=O)Cn1cccc1-c1nc(-c2ccccc2)no1 | -2.2%
COc1cccc(NC(=O)N2CC[C@@H](CC(=O)O)[C@@H](CC3=NCCc4ccc(C(C)(C)C)cc43)C2)c1 | -4.0%
CCc1nc(-c2ccc(OC3CCN(S(=O)(=O)Cc4ccccc4)C3)cc2)no1 (stereo not drawn) | u
O=C1CCN(C(=O)C2CCN(S(=O)(=O)c3ccc4c(c3)CCC4)CC2)CCCCCCN1 | 3.2%
COc1cc(Cl)ccc1-c1cccc(CCOc2cnc3c(ccn3CC(=O)O)c2)c1 | 0.0%[70.6 µM]
CN1[C@@H](CCC(=O)N2CCN(c3ccccc3)CC2)CNC(=O)[C@@H]2[C@H]1CCN2Cc1ccc(F)cc1 | -13.8%
COC1C(=O)N(CC2CC2)C12CCN(S(=O)(=O)c1ccc3c(c1)OCCO3)CC2 (stereo not drawn) | -2.4%
The results go on.
SMILES | NPR1 antag
CCc1cccc2c(C(CC(=O)NC(C)CC)c3cccc(OC)c3)c[nH]c12 (stereo not drawn) | -7.8%
O=c1c2nc(-c3cccc(O)c3)ccc2ncn1C1CC1 | 1.3%[70.6 µM]
N#Cc1ccc(CN2C[C@@H](CO)[C@H](c3ccncc3)C2)cc1 | 1.0%
CC(C)N1CCN(c2ccc3nnc(C4CCC4)n3n2)CC1 | -2.8%
CN1CC(=O)N(c2ccccc2F)Cc2c(NCC3CCCCC3)ncnc21 | 0.1%
CCN1C(=O)CCc2cc(NC(=O)CC(C)C)ccc21 | -1.6%
COc1ccc(NC(=O)N2CC[C@@H](CC(=O)O)[C@@H](CCN3CCOCC3)C2)cc1 | -22.0%[70.6 µM]
CC(C)CCNC(=O)NC1CCN(C(=O)N2CC3CC(C2)[C@H]2CCCC(=O)N2C3)CC1 (stereo partly drawn) | 0.9%
O=C(O)C[C@@H]1CCN(C(=O)C2CC2)C[C@@H]1CCN1CCC(n2c(=O)[nH]c3ccccc32)CC1 | 4.6%
CCn1nccc1C(=O)N1C[C@@H](Oc2cccnc2)C[C@H]1C(=O)NC1CC1 | 1.1%
Cc1nccn1Cc1nnc(C2CCN(C(=O)c3cnccn3)CC2)n1C | 3.9%
CC(C)NC(=O)c1ccccc1OCC1CCCN(Cc2ccncc2F)C1 (stereo not drawn) | 0.9%
Cn1c(CN2CCC3(CCNCC3)C2)nc2ccccc21 | -5.5%
O=C(c1cccc(F)c1)N1CCCC(c2noc(COc3ccccc3F)n2)C1 (stereo not drawn) | -6.8%
CC(=O)NCC1(COc2cnccn2)C[C@@H](O)[C@@H](O)C1 (stereo partly drawn) | 3.6%[70.6 µM]
Cc1cnc(C(=O)N[C@@H]2CCC[C@@H]2C(=O)NCc2ccc(OC(F)(F)F)cc2)cn1 | -13.5%
COc1nccnc1NC1CCN(C(=O)Cc2c(C)noc2C)CC1 | 0.8%
COc1ccc2c(c1)C(C[C@H]1CN(C(=O)C3CC3)CC[C@H]1CC(=O)O)=NCC2 | -1.5%[70.6 µM]
O=C(NCc1ccccn1)C1CCN(C(=O)c2ncn3c2COC(c2ccc(F)cc2)C3)CC1 (stereo not drawn) | -4.1%
COc1ccccc1C(=O)N1CCN(c2cc(-c3ccccc3)[nH]n2)CC1 | -3.2%
COc1ccc(CCc2nc3nccc(-c4cc(OC)c(OC)c(OC)c4)n3n2)cc1 | -4.1%
Cc1cnc(CCNC(=O)C2CC=CC2)n1C1CC1 | -5.1%
CCc1nc2c(c(-c3ccc(Cl)cc3)n1)CN(C(=O)c1ccccc1Cl)CC2 | 1.0%
O=C(c1cnccn1)N1CCC(Oc2ccc3ncccc3c2)(C(=O)O)CC1 | 7.9%
CC(=O)N1CCN(c2nc3c(s2)CC(C(=O)NCC2CCCCC2)CC3)CC1 (stereo not drawn) | -18.1%

Reformatted: results already given.
SMILES,NPR1 antag
CCN1C(=O)CCc2cc(NC(=O)CC(C)C)ccc21,-1.6%
COc1ccc(NC(=O)N2CC[C@@H](CC(=O)O)[C@@H](CCN3CCOCC3)C2)cc1,-22.0%[70.6 µM]
CC(C)CCNC(=O)NC1CCN(C(=O)N2CC3CC(C2)[C@H]2CCCC(=O)N2C3)CC1 (stereo partly drawn),0.9%
O=C(O)C[C@@H]1CCN(C(=O)C2CC2)C[C@@H]1CCN1CCC(n2c(=O)[nH]c3ccccc32)CC1,4.6%
CCn1nccc1C(=O)N1C[C@@H](Oc2cccnc2)C[C@H]1C(=O)NC1CC1,1.1%
Cc1nccn1Cc1nnc(C2CCN(C(=O)c3cnccn3)CC2)n1C,3.9%

New compounds follow:
SMILES | NPR1 antag
COC[C@@H]1CN(S(=O)(=O)Cc2ccccc2)C[C@H]1c1ccncc1 | 6.9%
CCn1ccc(C(=O)N2CC[C@@H]3COCCN(Cc4ccncc4)[C@@H]3C2)n1 | 6.2%
CC(C)CN1C(=O)c2cccn2CC1C(=O)N(C)Cc1cccnc1 (stereo not drawn) | 5.8%
COCC(=O)NC[C@H]1O[C@H](Cc2cc(-c3ccc(OC)cc3)on2)CC[C@@H]1O | 1.2%[70.6 µM]
C=CCO[C@@H]1C[C@H]2C(=O)Nc3ccc(-c4ccc(OC)cc4)cc3C(=O)N2C1 | 1.3%[70.6 µM]
COc1cccc(C)c1NC(=O)c1cccc(CN2CCCC(C)C2)c1 (stereo not drawn) | 3.1%
Cc1nc(CN2C[C@H](C(=O)Nc3ccc(F)cc3)C[C@@H]2c2ccc(F)cc2)cs1 | -0.6%[70.6 µM]
COc1ccc(-c2noc([C@@H]3C[C@H](NCc4ccc(N(C)C)cc4)CN3C)n2)cc1 | -15.5%[70.6 µM]
OCc1ccc(CN2C[C@H](O)C[C@H]2c2nc(-c3cccnc3)no2)o1 | 7.5%[70.6 µM]
COCCN(CCOC)CC[C@@H]1CC[C@H](O)[C@@H](C(=O)N2CCOCC2)O1 | 0.1%[70.6 µM]
CC(=O)N1CCC(N2C[C@H](O)C[C@H]2c2nc(-c3ccc4c(c3)OCO4)no2)CC1 | -5.2%[70.6 µM]
CC1(c2ccccc2)N(Cc2ccccc2)C(=O)OC12CCN(C(=O)COc1ccccc1)CC2 (stereo not drawn) | 1.6%
CCc1nc2c(=O)n(CC(=O)NCCN3CCOCC3)nc(C)c2s1 | 0.7%
N#Cc1ccc(-c2nc(C(=O)NC3CCCCC3)no2)cc1 | 3.0%
CCCNC(=O)C(NC(=O)c1ccccc1C)C1CCN(C(=O)c2ccco2)CC1 (stereo not drawn) | -11.1%
COc1ccc(Br)c(C(=O)N[C@@H]2C=C(C(=O)NCCC(N)=O)C[C@@H](O)[C@@H]2O)c1 | -1.2%
Cc1nc(C2(C)CCN(S(=O)(=O)c3c(C)c(C)cc(C)c3C)CC2)no1 | -13.2%
CC(c1ccc(-c2ccc(N3CCN(C)CC3)nn2)cc1)N1CCCCC1 (stereo not drawn) | 8.8%
N#Cc1cccc(-c2ccnc(N[C@H]3CO[C@H]4[C@@H]3OC[C@@H]4NC(=O)N3CCOCC3)n2)c1 | -2.4%
O=C(NC1CCCCC1)N1CCCC1c1nc(CCOCC2CCCC2)no1 (stereo not drawn) | 1.2%
CCCn1c(C)cnc1CC1CCN(S(C)(=O)=O)CC1 | 9.0%
CCN1C(=O)C2(CCN(C(=O)C3CCCCC3)CC2)c2ccccc21 | 3.6%
CCc1ccc(C(=O)N2CCC(Oc3ccc(C(N)=O)cn3)CC2)cc1 | -29.9%
CNC(=O)CC1COCCN1C(=O)c1cccc(Cn2nc(C)cc2C)c1 (stereo not drawn) | -1.1%
COc1ccc(C(=O)N[C@@H]2CCC[C@@H]2C(=O)NCc2ccccc2C)cn1 | -0.4%
Next section.
SMILES | NPR1 antag
COCCN1Cc2nc(-c3cc(F)cc(F)c3)ccc2OCC1=O | -3.7%[70.6 µM]
COc1ccc2[nH]c3c(c2c1)CCNC31CCN(C(=O)C2CCN2C2CCCCC2)CC1 (stereo not drawn) | 13.0%
COc1ccccc1NC(=O)Cn1c(C)cc2nc3n(c(=O)c21)CCC3 | -1.3%
O=C1CCN(S(=O)(=O)c2ccccc2)CCCN(Cc2ccc3cc[nH]c3c2)CCN1 | -0.3%
O=C(CN1C(=O)C(c2ccccc2)=NC12CCCC2)Nc1ccc2c(c1)OCCO2 | -8.8%
COc1coc(C(=O)N2CCCC(c3ccccc3)(c3ccccc3)C2)cc1=O | 6.6%
N#Cc1cccc(CN2CCCOCCNC(=O)CC2)c1 | 0.1%
CC(C)CC(=O)N1CCC(Oc2ccccc2-c2nc(C3CCOCC3)no2)C1 (stereo not drawn) | -0.4%
COCc1cc(C[C@@H]2C[C@H](NC(=O)c3ccco3)C2(C)C)no1 | -17.6%[70.6 µM]
O=C1CC(c2ccccc2)N(C(=O)CNC(=O)Cn2ccnc2)CCCCCN1 (stereo not drawn) | 2.2%
COc1ccc(CCC(=O)N2CCCOCCNC(=O)[C@@H]3CCCC[C@@H]32)cc1 | -5.3%
CCc1cccc(C)c1NC(=O)CN1C(=O)NC(c2ccc(Cl)cc2)C2=C1COC2=O (stereo not drawn) | -8.8%
O=C(NC1CCCC1)NC1CCN(c2nc3ncccc3o2)CC1 | 11.0%[70.6 µM]
CCOc1ccccc1NC(=O)Cn1c(-c2ccccc2)nc(C)cc1=O | -4.3%
CCN1CCN(CCNC(=O)C2Cn3cccc3C(=O)N2Cc2cccnc2)CC1 (stereo not drawn) | 3.9%
O=C(Nc1ccc(Cl)cc1)c1ccc2c(c1)n(Cc1ccccc1)c(=O)c1ccnn12 | -15.4%
Oc1ccc(-c2nc(C3CC3)nc3c2CCN(Cc2ccccc2C(F)(F)F)CC3)cc1 | -0.2%
O=C1c2c(nc(COc3ccc(F)cc3)n2Cc2ccccc2)NCCN1CCOc1ccccc1 | u
Cc1nc(-c2cnccn2)n(CC(=O)Nc2cccc(Cl)c2)c(=O)c1C | -18.4%
O=C(N[C@@H]1CCC[C@@H]1C(=O)N1CCN(c2ccccn2)CC1)c1ccncc1 | 2.3%
COCCN1CCOc2nc(-c3ccc(C(=O)N(C)C)cc3)ncc2C1=O | -1.4%[70.6 µM]
CCCOc1nccnc1NC1CCN(C(=O)c2ccsc2)CC1 | -1.3%
COc1cccc(CN2Cc3cc(NC(=O)c4cccs4)ccc3OCC2=O)c1 | -19.8%
O=C(c1ccccc1C(F)(F)F)N1CCOc2ccc(CN3CCOCC3)cc2C1 | 1.3%
CNC(=O)c1cc(-c2ccc([S+](C)(=O)[O-])cc2)cc2c1OCCN2Cc1cccnc1 | -3.7%[70.6 µM]

Among those listed so far, two have a tert-butyl group:
SMILES | NPR1 antag
CC(C)(C)c1cc(CC2(NCc3ccc(C#N)cc3)COC2)no1 | -7.9%[70.6 µM]
COc1cccc(NC(=O)N2CC[C@@H](CC(=O)O)[C@@H](CC3=NCCc4ccc(C(C)(C)C)cc43)C2)c1 | -4.0%

Next section
SMILES | NPR1 antag
Cc1ccc(C(=O)Nc2cccn3nc(C4CCC4)nc23)cc1C | 5.2%
CCN1C(=O)C2CC3(CCN(C(=O)c4cc5ccc(OC)cc5[nH]4)CC3)CN2C1=O (stereo not drawn) | -17.5%
COc1ccc(C2Cn3nnc(C(=O)N4CCN(C(=O)c5cccc(F)c5)CC4)c3CO2)cc1 (stereo not drawn) | u
CC(C)n1nc(OC(C)(C)C(=O)NC2CCC(O)CC2)c2cc(CN3CCOCC3)ccc21 (stereo not drawn) | 5.1%
COc1ccc(-c2n[nH]c3c2CC(=O)N(c2ccccc2)C3)cn1 | -1.3%[70.6 µM]
Cc1nc2cccnc2n1CC1CCCN(S(=O)(=O)c2ccc(C(F)(F)F)cc2)C1 (stereo not drawn) | -23.2%
O=C(Nc1ccc(F)c(F)c1)c1cc2n(n1)CC(c1ccc(Cl)cc1)OC2 (stereo not drawn) | u
O=C(N[C@@H]1CCOC[C@H]1O)c1cnn2cc(CCO)cnc12 | 2.2%
Cc1ccc(C(=O)NCc2nnc3c(-c4nc(C)no4)cccn23)cc1 | 1.3%
CCN(CC1CCOCC1)C(=O)c1cc(COc2ccccc2F)[nH]n1 | 5.4%
